NPYLR7 ag = activates Aedes aegypti NPYLR7 receptor | HEK293T NPYLR7/Galpha15, GCaMP6s calcium fluorescence | activation, % at 10 µM | 270,000 compounds, 0.15% hits; in the data active = activation above about 40%;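 note: 0% = vehicle and 100% = reference agonist at the receptor; some compounds past the cut are filed as inactive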
NPYLR7 ag max-min = second read-out of NPYLR7 ag, no call of its own (marks repeat the call); activation, %; measured here: Max-Min RFU normalised activation; some inactives read as strong as hits;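 span of the calcium signal over five minutes; 0% = vehicle and 100% = native peptide agonist; compound fluorescence can raise it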
* hit, by the source's call. Some of the compounds tested; count on the stated rates, not on these rows.

SMILES	NPYLR7 ag	NPYLR7 ag max-min
O=C(CCC1CCN(C(=O)c2cccc(-n3cccn3)c2)CC1)Nc1ccccc1	6.9	-1.1
CCOc1ccc(/C=C2/SC(=S)N(CC(=O)O)C2=O)cc1OCC	1.4	-2.5
Cc1cc(O)c(C(=O)C=Cc2ccc(C(C)C)cc2)c(=O)o1	2.5	4.3
C[n+]1oc(/C=C/c2ccccc2)cc1/C=C/c1ccccc1	1.6	-0.1
O=C1NC2(CCN(C(=O)Nc3ccc(C(F)(F)F)cc3)CC2)Nc2ccc(Br)cc21	0.7	6.3
Cc1cn2c3c(=O)n(CC(C)C)c(=O)n(C)c3nc2n1CC(C)C	2.7	4.1
Cc1ncsc1CCC(=O)N1CCCC(CNC(=O)c2ccco2)C1 (stereo not given)	0.6	-5.8
Cc1ccc([N+](=O)[O-])cc1S(=O)(=O)N1CCN(C(=O)NCCc2cccc(Cl)c2)CC1	2.2	13.0
O=C(NCc1ccc(-c2ncc(-c3ccc(N4CCOCC4)cc3)[nH]2)cc1)c1ccc(F)cc1Cl	28.2	37.1
CCOC(=O)C1(Cc2ccccc2)CCCN(Cc2nc3ccccc3n2C)C1 (stereo not given)	0.1	-4.2
CCSC1CCC(NC(=O)c2cc(S(=O)(=O)N3CCOCC3)ccc2F)C1 (stereo not given)	-0.4	-2.1
CCN(CC(=O)NCc1ccc(F)cc1)Cc1cc(=O)n2ccccc2n1	9.2	7.4
Cc1ccc(-c2ccc(C(=O)N(Cc3cnn(C)c3)C3CC3)cc2)o1	10.4	7.1
CCn1nnc2c(N3CCN(C(=O)CCC4CCCCC4)CC3)ncnc21	1.0	5.0
CCOC(=O)CSc1nc2ccccc2[nH]1	-4.5	-9.1
Cc1c(C(=O)N2C[C@H](O)C[C@H]2C(=O)OCc2ccccc2)ncn1Cc1ccc(Cl)cc1	3.2	6.3
CC(NC(=O)c1ccoc1)C(=O)NC1CCCC1(C)CO (stereo not given)	-3.8	-4.9
CCc1ccc(C2C(C#N)=C(C)NC3=C2C(=O)CC(C)(C)C3)cc1 (stereo not given)	6.2	5.2
c1cc(CN2CCOCC2)cc(-c2ccc(Cn3ccnc3)cc2)c1	-0.2	1.4
CCn1nc(C)cc1C(=O)N1CCN(c2ncccc2C(=O)NCc2cccs2)CC1	-1.2	-13.4
CCN1CCCC1CN(CC1CCN(CCOC)CC1)C(=O)/C=C/C(C)C (stereo not given)	13.5	5.7
Cc1ccc(CN(C)C(=O)CNC(=O)c2cc(Cl)ccn2)cc1	-0.2	0.5
O=C(Cn1nc2c(c1NC(=O)C1CC1)CSC2)NCc1ccc(F)cc1	-5.6	-5.1
CC(Sc1nnc(-c2ccc3c(c2)OCO3)o1)c1nnc(-c2ccc([N+](=O)[O-])cc2)o1 (stereo not given)	1.7	0.8
COc1ccccc1NC(=O)N(Cc1ccco1)Cc1nccn1Cc1ccccc1	10.3	12.4
Clc1ccc(CSc2ncccn2)c(Cl)c1	4.1	3.5
NC(=O)c1c(NC(=O)c2cc(=O)[nH]c3ccccc23)sc2c1CCCC2	2.4	1.1
O=S(=O)(c1ccc(SCc2cc(Cl)c3c(c2)OCCCO3)nc1)N1CCCC1	0.0	2.0
CC(=O)Nc1cccc(-c2nc3ccccc3n2CCO)c1	5.5	1.7
CCOc1ccc(NC(=O)N[C@@H]2C[C@@H]3C[C@H]([C@H]2C)C3(C)C)cc1	-23.8	-29.2
COc1ccc(F)c(CN2CCC3(CC2)CNC(=O)C3)c1Cl	-3.4	-1.5
COCCNC(=O)Cn1nc2c(c1NC(=O)c1cccc(C(F)(F)F)c1)CSC2	-5.2	2.5
O=C1N(Cc2ccccn2)C(=O)C2(CCN(Cc3ccsc3)CC2)N1Cc1ccccc1	5.4	-3.5
COC(=O)c1cc(COC(=O)CNC(=O)c2cccc(C)c2)oc1C	-0.3	-4.0
CC(C)c1ccc(CC(=O)N2CCC2(C)C(=O)Nc2ccccc2)cc1 (stereo not given)	7.3	6.2
c1csc(CN2CCC(Cc3ccc(-n4cccc4)cc3)CC2)c1	0.9	2.5
OC(c1ccc(F)cc1)c1ncc(-c2cccc(C(F)(F)F)c2)[nH]1 (stereo not given)	6.2	4.6
CCCCCCCCCCCSc1nc2ccccc2[nH]1	-20.3	-24.9
COc1ccc(OC2CCN(C(=O)C3CC3)CC2)c(C(=O)NCc2cnc(C)cn2)c1	-0.4	-5.6
COC(C)(C)CC(C)NC(=O)N1CCN(C(C)C(F)(F)F)CC1 (stereo not given)	-0.7	-2.0
Cc1ccccc1NC(=O)CSc1ccnc(=O)[nH]1	-1.0	-3.7
Cn1c(CNCCCN2CCc3ccccc3C2)nc2ccccc21	2.8	1.2
O=C(c1cnc2ccccn12)N(CC1CCC1)CC1CCCO1 (stereo not given)	10.1	-1.7
O=C1CCNc2ncc(Br)cc2CN1CC(F)F	4.6	3.9
COc1cc2c(cc1OC)CN(C(=O)c1cn(Cc3ccccc3F)nn1)CC2	10.8	0.8
OCc1ccc(-c2nccn2CCc2ccccc2Cl)o1	-4.6	-8.3
Cc1nn(C)c(Cl)c1S(=O)(=O)NC(=O)C1(C)CCN1C(=O)Cc1cccs1 (stereo not given)	1.2	-0.7
COCCn1c(C)c(C)n2c3c(=O)n(CC(N)=O)c(=O)n(C)c3nc12	4.6	0.5
O=C(O)[C@H]1C[C@@H](C(=O)NC2CC2)CN(Cc2cn[nH]c2C2CCCCC2)C1	4.1	2.1
CCn1c(SCC(=O)N2CCC(C)CC2)nc2c(c1=O)SCC2	-0.9	-2.2
COC[C@H](Cc1ccccc1)NC(=O)CCC1NC(=O)c2ccccc2N(Cc2ccccc2)C1=O (stereo not given in full)	0.1	5.0
COCCn1c(O)c(C=NCCNC(C)=O)c(=O)[nH]c1=S	-4.9	-12.6
Clc1cccc(N2CCN(C3CCCN(CC4CCCC4)C3)CC2)c1 (stereo not given)	16.6	7.9
CN(CC1CCCCO1)S(=O)(=O)NCc1ccccc1 (stereo not given)	1.8	0.9
COc1cc(/C=C/C(=O)Nc2c3c(nn2-c2ccc(Cl)cc2)CSC3)cc(OC)c1OC	-2.0	-2.0
COc1ccc2c(=O)c(Oc3ccc(F)cc3)c(C(F)(F)F)oc2c1	-5.6	-12.0
CC(C)c1cnc2c(c1SCC(=O)N1CCCCCC1)c(=O)n(C)c(=O)n2C	-1.4	6.7
CCOC1CC1C(=O)NC1CCCOc2ccccc21 (stereo not given)	-16.0	-18.7
CCC1=NN(C(=O)c2cccs2)C(O)(C(F)(F)F)C1 (stereo not given)	-3.2	-3.9
COc1ccccc1OCC1CN(C(=O)c2cccc(NC(C)=O)c2)CCO1 (stereo not given)	-5.4	-8.1

Reprinted at random: 2 compounds from above, in no set order.
SMILES	NPYLR7 ag	NPYLR7 ag max-min
COCCn1c(C)c(C)n2c3c(=O)n(CC(N)=O)c(=O)n(C)c3nc12	4.6	0.5
COc1cc(/C=C/C(=O)Nc2c3c(nn2-c2ccc(Cl)cc2)CSC3)cc(OC)c1OC	-2.0	-2.0

Carrying on.
SMILES	NPYLR7 ag	NPYLR7 ag max-min
COc1cccc(COC(CN2CCN(S(=O)(=O)c3ccc(F)cc3F)CC2)c2ccc(Cl)cc2)c1 (stereo not given)	18.6	11.1
CC(O)c1ccc(N2CCOCC2)cc1Cl (stereo not given)	11.4	7.7
CC(C)Oc1ccc(Cl)cc1C(N)=O	5.7	1.6
CCOC(=O)c1c(NC(=O)COc2ccc(Cl)cc2)sc(C(=O)Nc2ccccc2OC)c1C	-5.4	-1.5
Cn1c(=O)[nH]c(=O)c2c1nc1n2CCCN1c1ccccc1	5.6	0.9
O=C(NCc1cnn2ccccc12)c1cccc(Cn2cccn2)c1	-5.1	-4.8
Cc1ccc(NC(=O)c2c(N)c(C(=O)c3ccc(C)cc3)n3ccccc23)cc1	-3.3	-8.0
CCOc1ccc(-c2ccnc(N3CCN(C(=O)c4ccc(C(F)(F)F)c(F)c4)CC3)n2)cc1	4.5	1.1
O=C(CN1CCOc2ccccc2C1)NC1CCCN(CCc2ccccc2)C1 (stereo not given)	4.8	3.6
CC(C)CN(Cc1cccn1Cc1ccccc1Cl)C(=O)CN(C(=O)C(c1ccccc1)c1ccccc1)C(C)C	-6.1	3.3
Cc1nc2ccccn2c(=O)c1NC(=O)c1ccccc1C(F)(F)F	2.4	0.9
Cc1ccc(NC(=O)COc2coc(CN3CCc4ccccc43)cc2=O)c(C)c1	-0.1	-2.1
O=C(NCc1ccco1)C12CC3CC(CC(C3)C1)C2	2.1	10.9
Cc1[nH]c2ccccc2c1SCC(=O)Nc1ccccc1	1.7	0.0
COc1cn(CC(=O)NCc2ccc(F)cc2)c(CN2CCOCC2)cc1=O	1.9	0.6
CC(C)CNC(=O)C1(C)CCCN1Cc1ccccc1-c1ccccc1 (stereo not given)	1.6	-0.1
CCCCN(CC(=O)N1CCc2sccc2C1c1ccc(Cl)cc1)C(=O)COC (stereo not given)	-8.4	-2.8
Cn1cc(CN(C(=O)CSCc2ccccc2Cl)C2CC2)cn1	-0.6	10.5
NC(=O)N1CCCC(C(=O)O)C1 (stereo not given)	5.6	6.5
CCn1cc(S(=O)(=O)n2nc(C)c(Br)c2C)cn1	16.5	8.4
O=C(Cc1ccc(F)cc1)Nc1ccc2c(c1)CCC(=O)N2	6.3	5.1
CN1CC(=O)N2C[C@@H](NC(=O)c3ccc[nH]3)C[C@H]2C1=O	4.5	-5.3
N#Cc1ccc(SCC(=O)NCC2(Sc3ccccc3)CC2)cc1	8.9	9.4
CCc1nnsc1C(=O)OC(C)C(=O)Nc1cc(C)ccc1OC (stereo not given)	-4.4	-2.0
CCC(C)NC(=O)c1cn2c(n1)CCC(c1cc(C)c(OC)c(C)c1)C2 (stereo not given)	-2.0	-2.9
COc1ccc(Cn2ccnc2CN(Cc2cccnc2)C(=O)c2cccc(OC)c2)cc1	2.9	3.9
OCCn1c(CN2CCc3sccc3C2c2cccs2)nc2ccc(Cl)cc21 (stereo not given)	5.6	6.7
CN1C(=O)C(=Cc2cc(Br)c3c(c2)OCO3)C(=O)N(C)C1=O	8.2	2.4
CC(=O)Oc1c(-c2ccc(NC(=O)c3ccccc3Cl)cc2)c(-c2cccc(C)c2)nn1-c1cccc(C)c1	-0.9	-0.8

Compounds listed so far with an aryl methoxy group, in the order listed:
SMILES	NPYLR7 ag	NPYLR7 ag max-min
COc1ccccc1NC(=O)N(Cc1ccco1)Cc1nccn1Cc1ccccc1	10.3	12.4
COc1ccc(F)c(CN2CCC3(CC2)CNC(=O)C3)c1Cl	-3.4	-1.5
COc1ccc(OC2CCN(C(=O)C3CC3)CC2)c(C(=O)NCc2cnc(C)cn2)c1	-0.4	-5.6
COc1cc2c(cc1OC)CN(C(=O)c1cn(Cc3ccccc3F)nn1)CC2	10.8	0.8
COc1cc(/C=C/C(=O)Nc2c3c(nn2-c2ccc(Cl)cc2)CSC3)cc(OC)c1OC	-2.0	-2.0
COc1ccc2c(=O)c(Oc3ccc(F)cc3)c(C(F)(F)F)oc2c1	-5.6	-12.0
COc1ccccc1OCC1CN(C(=O)c2cccc(NC(C)=O)c2)CCO1 (stereo not given)	-5.4	-8.1
COc1cccc(COC(CN2CCN(S(=O)(=O)c3ccc(F)cc3F)CC2)c2ccc(Cl)cc2)c1 (stereo not given)	18.6	11.1
CCOC(=O)c1c(NC(=O)COc2ccc(Cl)cc2)sc(C(=O)Nc2ccccc2OC)c1C	-5.4	-1.5
COc1cn(CC(=O)NCc2ccc(F)cc2)c(CN2CCOCC2)cc1=O	1.9	0.6
CCc1nnsc1C(=O)OC(C)C(=O)Nc1cc(C)ccc1OC (stereo not given)	-4.4	-2.0
CCC(C)NC(=O)c1cn2c(n1)CCC(c1cc(C)c(OC)c(C)c1)C2 (stereo not given)	-2.0	-2.9
COc1ccc(Cn2ccnc2CN(Cc2cccnc2)C(=O)c2cccc(OC)c2)cc1	2.9	3.9
